Ba CapD inh: inhibitors of Bacillus anthracis CapD enzyme; purified CapD enzyme, fluorescence intensity read-out; stronger effect = lower value; some hits fall short of the stated cut; z-score (no concentration beside the values); 0.23% of 140,000 active; AID 492967;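 active = z-score under -4 in either of two replicates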;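 note: stock transfer was 100 nL into about 40 µL; score is relative to mean and spread of the plate; one replicate is shown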
AID504770: growth inhibitors of E. coli YBA685 in a screen for V. cholerae RctB (chromosome II replication) inhibitors; E. coli YBA685 rctB-dependent plasmid, OD600 growth, 3 h; stronger effect = lower value; 0.27% of 130,000 active; AID 504770; z-score (no concentration beside the values);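 active = z-score under -2 on both plates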;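 note: wells of about 30 µL received 100 nL stock; score is relative to mean and SD of the test wells; the first replicate is given; strong numbers were not always called active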
The depositor's hits bear a star; nt = no result given. The list is partial; count on the stated rates, not on these rows.

Sequence of screens – Ba CapD inh	AID504770
- CCOc1ccc2cc(S(=O)(=O)N3CCCCCC3)ccc2c1
→ 8	0.05
- Cc1[nH]c2ccccc2c1C(=O)CSC(=S)N1CCCCC1
→ 0.29	1.3
- O=c1cc(-c2ccccc2)n(S(=O)(=O)c2ccc3ccccc3c2)o1
→ 0.36	nt
- COc1ccc(-c2nc(C#N)c(N3CCN(C)CC3)o2)cc1
→ 0.29	-1.1
- CCN1CCN(C(=O)c2oc3ccc4c(c3c2C)C(=O)CC2(CCCCC2)O4)CC1
→ 19	-0.5
- CC(C)(C)c1cc(C(=O)Oc2cccnc2)cc(C(=O)Oc2cccnc2)c1
→ -0.005	1
- CC1(C)Cc2c(c(-c3ccccc3)nc3oc(C(=O)c4ccccc4)c(N)c23)CO1
→ -0.59	nt
- CN1C2C=C(N(CCc3c[nH]c4ccccc34)C(=O)c3ccc(Cl)cc3)CC1CC2 (centres undefined)
→ 0.15	nt
- CCOc1cc(C=NN2CCN(Cc3ccccc3)CC2)ccc1O
→ -0.6	0.4
- CC(C)OC(=O)N(C)c1ccc(C(O)(C(F)(F)F)C(F)(F)F)cc1
→ 0.35	2.3

Taken from above:
Reading of `CC(C)(C)c1cc(C(=O)Oc2cccnc2)cc(C(=O)Oc2cccnc2)c1` under AID504770: 1
Reading of `O=c1cc(-c2ccccc2)n(S(=O)(=O)c2ccc3ccccc3c2)o1` under Ba CapD inh: 0.36
Reading of `COc1ccc(-c2nc(C#N)c(N3CCN(C)CC3)o2)cc1` under AID504770: -1.1
Reading of `Cc1[nH]c2ccccc2c1C(=O)CSC(=S)N1CCCCC1` under AID504770: 1.3

Continuation.
Sequence of screens – Ba CapD inh	AID504770
- N#CC1(NC(=O)CN2CCN(C(=O)c3ccccc3)CC2)CCCC1
→ nt	0.15
- N#CC1=C(SCC(=O)NC2CCCCC2)NC(=O)CC1c1ccc(F)cc1 (centres undefined)
→ -0.11	-0.25
- Cc1cc(C(F)F)c2c3ccccc3n(C)c2n1
→ nt	0.6
- Cn1cnnc1SCc1ccc(C#N)cc1
→ nt	0.7
- CC(=NCCc1ccc(F)cc1)C1=C(O)c2ccccc2C1=O
→ -4.8*	-0.3
- C=CCn1c(=N)n(CC(O)c2ccc(OCC)cc2)c2ccccc21 (centres undefined)
→ -0.4	1.6
- CN1/C(=C\C=C2C(=O)c3ccccc3C2=O)Sc2ccccc21
→ -0.57	-0.35
- COc1cc(OC)cc(-c2cc3nc(-c4ccccc4)cc(N4CCN(c5ccccc5)CC4)n3n2)c1
→ nt	-0.25
- CC12CN3CC(C)(CN(C1)C3C(O)C(O)C(O)CO)C2 (centres undefined)
→ 0.23	-1
- CC1(C)NC(C)(C)/C(=N\O)C(=NO)/C1=N\O
→ -0.49	-0.55
- CSc1nc(-c2ccc(Cl)cc2)nn1S(=O)(=O)c1ccc(NC(C)=O)cc1
→ nt	-0.5
- CSc1nn(-c2ccccc2)cc1/C(N)=N/OC(=O)Nc1ccccc1
→ 0.55	-0.7
- CCOc1cc(C=C2C(=O)NC(=O)NC2=O)ccc1OC(=O)c1ccc(Cl)cc1
→ -0.06	nt
- Cc1cccc(NC(=O)N2CCCC2C(=O)O)c1 (centres undefined)
→ 0.3	0.5
- Cn1nc(-c2ccc(C(=O)Nc3cccnc3)cc2)c2ccccc2c1=O
→ nt	-0.2
- CCCn1c(N)c(C(c2cc(OC)c(OC)c(OC)c2)N2CCCC2)c(=O)[nH]c1=O (centres undefined)
→ nt	-1.2
- NC1=CC(=O)CC(c2ccc(Cl)cc2)C1 (centres undefined)
→ -0.26	-0.5
- Cc1ccccc1COC(=O)N1CCN(C(c2ccccc2)c2ccc(Cl)cc2)CC1 (centres undefined)
→ -0.84	nt
- O=C(NCC(O)c1ccc(O)cc1)c1c(F)cccc1F (centres undefined)
→ -0.62	nt
- O=S(=O)(c1ccc2oc(SCc3cn4cc(Cl)ccc4n3)nc2c1)N1CCOCC1
→ nt	0.05
- CC(C)(C)c1ccc(COC(=O)C2=COCCO2)cc1
→ nt	-0.75
- Cc1cc(C)c(N2C(=O)c3nccnc3C2=O)c(C)c1
→ -0.47	0.3
- Cc1[nH]c2ccccc2c1C1CC(=O)N(c2ccccc2)C1=O (centres undefined)
→ nt	0.75
- O=c1[nH]c(-c2ccc(Br)cc2)nc2ccccc12
→ 0.89	-0.05
- CCc1ccccc1Cn1c(=O)oc2cccnc21
→ 90	-1.1
- Cc1ccc2c(c1)c1c3n2CCN(C(C)c2ccccc2)C3CCC1 (centres undefined)
→ -0.29	nt
- CCOc1ccc(N2CC(C(=O)O)CC2=O)cc1 (centres undefined)
→ -0.53	0.25
- O=C(NN1CCOCC1)c1ccc(OCc2cccc(Cl)n2)cc1
→ -0.32	nt
- O=C(Nc1cccc(C(F)(F)F)c1)NC1(c2ccccc2)CC1
→ -0.015	-0.75
- C=CCn1c(SCC(=O)Nc2ccc(OCC)cc2)nc2cc(C(=O)NCC3CCCO3)ccc2c1=O (centres undefined)
→ 0.12	nt

One compound at a time, from the list above. Order of screens: Ba CapD inh	AID504770
Profile of `O=c1[nH]c(-c2ccc(Br)cc2)nc2ccccc12` = 0.89	-0.05
Profile of `CCc1ccccc1Cn1c(=O)oc2cccnc21` = 90	-1.1

(next part)
Sequence of screens – Ba CapD inh	AID504770
- NS(=O)(=O)c1ccc(CCNC(=S)NCc2ccco2)cc1
→ 0.33	-0.35
- S=c1[nH]nc(-c2ccccc2)n1-c1ccccc1
→ 0.58	0.05
- COc1ccc(C2(c3ccc(OC)cc3)C=Cc3c(ccc4cc5ccccc5cc34)O2)cc1
→ 0.085	nt
- N#C/C(=C(/O)COc1ccccc1)c1nc2ccccc2[nH]1
→ -1.8	-0.4
- Cc1ccc2nc(NC(=O)c3ccc(=O)[nH]c3)sc2c1
→ nt	-0.65
- CCOc1ccc(C2Nc3ccc4ccccc4c3C3=C2C(=O)CCC3)cc1 (centres undefined)
→ -0.49	nt
- COc1ccc(-n2ccnc(SCC(=O)Nc3ccccc3)c2=O)cc1
→ 9.1	0
- O=C(Nc1ccc(Cl)cc1)N1CCN(c2cccc(Cl)n2)CC1
→ -0.26	nt
- O=S(=O)(c1cccs1)N1CCCCC1
→ -0.22	-0.6
- Clc1ccc(SCc2ccc(-c3nc4ccccc4s3)cc2)cc1
→ 0.46	nt
- CC1(C)NC(=S)c2ccccc2N1
→ 14	0.75
- CCOC(=O)N1CCN(C(=O)CN2C(=O)/C(=C\c3cccc(Cl)c3)Sc3ccccc32)CC1
→ -1.1	1.4
- Nc1nnc(-c2ccccc2SCc2ccc(F)cc2)s1
→ 0.15	1
- O=C(Cc1cccs1)Nn1c(Cc2cccs2)nc2ccccc2c1=O
→ nt	-1.6
- CCOC(=O)C1=C(N)OC2=C(C(=O)CC(c3ccccc3)C2)C1c1ccc(C)cc1 (centres undefined)
→ -0.09	nt
- CC(Sc1nnc(C(F)(F)F)n1C)C(=O)Nc1ccc(N2CCOCC2)cc1 (centres undefined)
→ nt	2.1
- CCc1ccc(NC(=O)c2cc3c(=O)n(Cc4ccco4)ccc3nc2C)cc1
→ -0.06	-0.15
- Cc1cc(=O)n2[nH]c(-c3cccs3)cc2n1
→ 9.4	nt
- NCC(=O)CCC(=O)O
→ nt	-0.3
- CC(=O)NCCC(=O)N1CCN(c2cccc(C)c2C)CC1
→ nt	1.1
- CCc1ccc(NC(=O)C2CC(=O)n3c(nc4ccccc43)N2)cc1 (centres undefined)
→ -0.66	0.1
- Cc1c(-c2csc(CS(=O)(=O)C(C)(C)C)n2)sc2ccccc12
→ -0.9	0.4
- Nn1c(SCCC(=O)O)nnc1-c1ccccc1
→ nt	-0.4
- Cc1cc(C)c2c(CC(=O)Nc3nc(C)c(C(=O)OCC(C)C)s3)coc2c1
→ -1.1	0.35
- CCOc1cccc(N2C(=O)NC(=O)/C(=C\c3ccc(OC(C)C(=O)O)cc3)C2=O)c1 (centres undefined)
→ 0.66	nt
- O=C(O)CC1C(=O)OCN1C(=O)OCc1ccccc1 (centres undefined)
→ 3.7	-1.1
- CCc1ccc(NC(=O)Cn2ncn3nc(-c4ccc(OC)cc4)cc3c2=O)cc1
→ -0.37	-0.6
- COc1cccc(N2CCN(C(=O)c3cc4nc(-c5ccc6c(c5)OCO6)cc(C(F)(F)F)n4n3)CC2)c1
→ -1.3	nt
- CC(C)n1c2ccccc2c2nnc(SCCCC(=O)c3ccc(F)cc3)nc21
→ -0.04	0.25
- O=C(CC(=O)Nc1ccccc1Cl)Nc1ccccc1Cl
→ -0.8	-1.4

Other structures follow.
| SMILES | Ba CapD inh | AID504770 |
| --- | --- | --- |
| CCOC(=O)c1cnn(-c2ccccc2)c1NC(=O)c1ccccc1F | -0.035 | -0.9 |
| CCC1SC(C)C/C(=N\O)C1C (centres undefined) | nt | 2.5 |
| CC1Cc2cc(S(=O)(=O)N(C)CC(=O)N3CCOCC3)ccc2N1C(=O)C1CC1 (centres undefined) | -0.41 | 1.2 |
| CSc1ccc(C=Nc2ccc(Cl)cc2Cl)s1 | 1.3 | 0.7 |
| CC(=O)N1N=C(c2cccc(I)c2)OC1c1ccncc1 (centres undefined) | 0.14 | 0 |
| CCCn1cc(SCC(=O)NCc2ccco2)c2ccccc21 | -0.92 | -0.2 |
| COc1cc(/C=N/NC(=O)CCN2CCCCC2)cc(OC)c1OC | nt | 0.95 |
| O=C(COc1ncnc2ccccc12)N1N=C2/C(=C/c3ccco3)CCCC2C1c1ccco1 (centres undefined) | nt | 0.05 |
| O=C(NCc1ccccc1)C1CCN(c2nnc(-n3cccc3)s2)CC1 | 0.3 | -1.1 |
| O=C(Cc1csc(-c2ccccc2)n1)N1CCN(C(=O)C2CCCO2)CC1 (centres undefined) | nt | -0.3 |
| COC(=O)c1sc2ccccc2c1OC(=O)c1ccccc1Cl | -0.55 | -0.3 |
| O=C(CSc1nc2cc(C(=O)NCC3CCCO3)ccc2c(=O)n1Cc1ccco1)NC1CCCC1 (centres undefined) | -0.56 | nt |
| CN(C)/C=C1/C(=O)Nc2ccccc21 | -3.1 | -1.2 |
| COc1cccc(NC(=O)Cn2c(=O)c3cccn3c3ccccc32)c1 | 1.1 | 0.7 |
| O=C(O)CC(=O)Oc1ccc(F)cc1 | -1.4 | 0.65 |
| N#Cc1ccc(NC(=O)c2c(Cl)cccc2Cl)cc1 | 0.18 | nt |
| CC1C/C(=C/c2ccco2)C(C)N(C)C1 (centres undefined) | -5.2* | -0.4 |
| O=C(Cn1c(=O)oc2ccccc21)c1ccccc1 | 0.34 | -0.1 |
| CC(=O)NC(NC(C)=O)C(C)(C)Cc1ccccc1 | -1.1 | 1.9 |
| CC(C)(C)c1ccc(-c2nc(N)nc(N)n2)cc1 | 0.39 | 0.45 |
| CN(CC(=O)O)S(=O)(=O)/C=C/c1ccccc1 | nt | -1.6 |
| Cc1ccc(Cl)cc1NC(=O)/C(=C/c1ccc2c(c1)OCO2)NC(=O)c1ccc(Br)cc1 | 0.13 | nt |
| CCSc1nnc2c(n1)OC(/C=C/c1ccco1)N(C(C)=O)c1ccccc1-2 (centres undefined) | -0.92 | -0.3 |
| O=C(CN1C(=O)c2cccnc2Oc2ccc(Cl)cc21)NC1CCCCCC1 | -0.69 | 0.5 |
| NC(=O)c1cc(Cl)c(C(N)=O)cc1Cl | 0.03 | 0.5 |
| Cc1nc(N2CCN(c3ccccn3)CC2)c2c(C)c(C(=O)N(C)Cc3ccccc3)sc2n1 | -0.66 | nt |
| O=C(Cc1csc(N2CCOCC2)n1)N/N=C1\CCCc2ccccc21 | nt | -1.5 |
| Cn1cc(SCC(=O)Nc2ccc(F)cc2)c2ccccc21 | nt | -0.3 |
| O=c1[nH]c2ccccc2c(O)c1C=NCc1ccccc1 | 12 | -0.2 |
| CC1(C)CC(=O)C2=C(C1)Nc1ccc3ccccc3c1C2c1ccc2c(c1)OCO2 (centres undefined) | 97 | nt |
| COc1ccc(NC(=O)COC(=O)c2oc3ccc(Br)cc3c2C)cc1OC | nt | -0.1 |
| CCC(C)Nc1nc(OCC(F)(F)F)nc(OCC(F)(F)F)n1 (centres undefined) | 0.29 | nt |
| COc1cccc(CN2CCC(NC(=O)c3cccc(C(F)(F)F)c3)C2)c1[N+](=O)[O-] (centres undefined) | -0.65 | nt |
| Cc1noc(C)c1C(=O)Sc1ccc(C(F)(F)F)cn1 | -0.7 | 1.8 |
| Cc1ccn2cc(-c3cccc(NC(=O)/C=C\C(=O)O)c3)nc2c1 | 0.85 | nt |
| O=C1NC(=Nc2ccccc2)CS1 | -0.15 | -0.6 |
| COc1ccc(CCN(Cc2ccccn2)S(=O)(=O)c2ccc(C(C)(C)C)cc2)cc1OC | -0.26 | 0.1 |
| CC(=O)Nc1ccc(S(=O)(=O)N2CCN(C(=O)N3CCCC3)CC2)cc1 | nt | -0.6 |
| c1ccc(N2CCN(c3ncnc4c3oc3ccccc34)CC2)cc1 | 0.035 | -0.55 |
| CN(C)c1ccc(/C=N/NC(=O)NC23CC4CC(CC(C4)C2)C3)cc1 | 4.3 | -0.2 |
| CCc1ccc(-n2nc3ccc(NC(=O)c4ccccc4Br)cc3n2)cc1 | -0.28 | 0.6 |
| OCCN1CCN(CCc2ccccc2)CC1 | 0.14 | -0.15 |
| N#CC(C#N)=Cc1cccn1S(=O)(=O)c1ccc(F)cc1F | -0.13 | -0.75 |
| CSc1sc(=S)sc1SCCC#N | 0.055 | -0.15 |
| Cc1cc2c(cc1NC(=O)CCc1ccccc1)n(C)c(=O)n2C | 0 | -0.65 |
| COC(=O)Cc1nnc(Nc2cccc(C)c2)c2ccccc12 | -0.15 | nt |
| N#CC1=C(N)OC(c2ccccc2)=C(Sc2ccc([N+](=O)[O-])cc2)C1c1cccnc1 (centres undefined) | -0.7 | nt |

4 of these compounds, set out differently.
Structure: OCCN1CCN(CCc2ccccc2)CC1
  Ba CapD inh = 0.14	AID504770 = -0.15
Structure: N#CC(C#N)=Cc1cccn1S(=O)(=O)c1ccc(F)cc1F
  Ba CapD inh = -0.13	AID504770 = -0.75
Structure: CSc1sc(=S)sc1SCCC#N
  Ba CapD inh = 0.055	AID504770 = -0.15
Structure: Cc1cc2c(cc1NC(=O)CCc1ccccc1)n(C)c(=O)n2C
  Ba CapD inh = 0	AID504770 = -0.65

Source: PubChem BioAssay
